Marburg entry inh = inhibitors of Marburg virus binding or cell entry; 300,000 compounds, 1.8% hits; Marburg virus pseudotyped entry inhibition, cell reporter; control for the full effect not named in the record; about a third of the inactives were read at about 46 µM; Potency, µM (highest dose often 37.8 µM), for the others: top-dose activity change, negative = inhibition, usual class: inhibitors; AID 540276; active = well fitted inhibition curve with a large enough effect; inconclusive = small, poorly fitted or top-dose-only effect, or effect the other way; inactive = flat fitted curve, though single readings scatter; tested in HEK293 cells; about a fifth of its hits are not listed in these tables; note: % is set by controls: 0 for no effect and ±100 for the full control effect; luciferase read-out
SARS PLpro yeast = SARS-CoV PLP inhibition in yeast; 330,000 compounds, 0.19% hits; S. cerevisiae expressing SARS-CoV PLpro, growth rescue; control for the full effect not named in the record; AID 485353; Potency, µM (highest dose often 32.9 µM), without a hit: at the top dose activity, positive = growth rescue; active means well fitted rising curve with a large enough effect; inconclusive means small, poorly fitted or top-dose-only effect; inactive means no such curve, though single readings can be large or run the other way; note: 0% is about no effect; nearly all actives have a fitted effect of over 55% in size; growth read by luminescence after 48 h
RE007 growth inh = less growth of the S. pombe RE007 Vpr strain; Potency, µM (highest dose often 92.2 µM), for the others: top-dose activity change, negative = less growth; 360,000 compounds, 0.21% hits; S. pombe RE007 Vpr strain, BacTiter-Glo ATP luminescence, 24 h; control for the full effect not named in the record; active = well fitted falling curve with a large enough effect; inconclusive = small, poorly fitted or top-dose-only effect; inactive = no such curve, though single readings can be large or run the other way;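 note: % is set by controls: 0 for no effect and ±100 for the full control effect; nearly all actives have a fitted effect of over 50% in size; the assay follows cell death caused by Vpr and the record does not say whether a fall means rescue or toxicity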
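Fission yeast RE007 carrying one integrated HIV-1 vpr copy, seeded at OD 0.01 in PMG+AL medium with 23 nL pinned compound. Grown 24 h at 30 degrees; viability read by BacTiter-Glo luminescence after 5 min.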
2A StopGo = lowers the luciferase signal of an FMDV 2A StopGo reporter. human cells with a luciferase reporter of 2A StopGo recoding; control for the full effect not named in the record. Potency, µM (series often up to 57.9 µM), without a hit: top-dose signal change, negative = less light. 410,000 compounds, 1.2% hits; active = well fitted falling curve with a large enough effect; inconclusive = small, poorly fitted or top-dose-only effect; inactive = no such curve, though single readings can be large or run the other way; tested in HEK293T cells; note: % is set by controls: 0 for no effect and ±100 for the full control effect; nearly all actives have a fitted effect of over 45% in size; luciferase light after 4 h
Cruzain noTriton = cruzain (T. cruzi) inhibition without detergent | purified cruzain, Z-FR-AMC fluorescence, no detergent | P25779 | AID 1476 | Potency, µM, for inactives: max response, negative = inhibition, actives largely listed as inhibitors | 200,000 compounds, 2.3% hits;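 note: plate controls were enzyme without inhibitor for no effect and buffer without enzyme for full effect; nearly all actives have a fitted effect of over 40% in size; top concentration of the series not given in the record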
Target sequence (P25779 123-467 limits assumed): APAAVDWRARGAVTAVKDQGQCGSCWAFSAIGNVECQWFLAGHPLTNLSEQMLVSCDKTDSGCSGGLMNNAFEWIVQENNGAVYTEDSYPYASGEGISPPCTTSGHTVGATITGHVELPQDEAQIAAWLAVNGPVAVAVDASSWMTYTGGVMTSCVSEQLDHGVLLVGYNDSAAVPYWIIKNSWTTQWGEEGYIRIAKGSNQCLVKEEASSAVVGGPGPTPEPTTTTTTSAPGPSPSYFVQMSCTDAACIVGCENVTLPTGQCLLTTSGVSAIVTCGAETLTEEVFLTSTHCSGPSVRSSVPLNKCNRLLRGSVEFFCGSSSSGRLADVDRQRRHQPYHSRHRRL
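Detergent-free condition (0.00005% Triton X-100) in acetate buffer pH 5.5 with DTT. 1.5 nM enzyme and compound were pre-mixed 15 min, then 2 uM Z-FR-AMC substrate added; reaction progress from fluorescence change between first and third reads (60 s).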
Cruzain inh Det = inhibitors of Trypanosoma cruzi cruzain with detergent | Potency, µM, inactives show max response, negative = inhibition, hits mostly inhibitors | 200,000 compounds, 0.43% hits | purified cruzain, Z-FR-AMC fluorescence, 0.01% Triton | P25779 | AID 1478;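 note: plate controls were neutral wells for no effect and buffer without enzyme for full effect; nearly all actives have a fitted effect of over 40% in size; top concentration of the series not given in the record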
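Enzyme 1.5 nM, Z-FR-AMC 2 uM, NaOAc 100 mM pH 5.5, DTT 5 mM, Triton X-100 0.01%; 15 min RT compound preincubation; kinetic ex360/em450, 60 s delta.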
LASV entry inh = inhibitors of Lassa virus binding or cell entry | AID 540256 | Lassa virus pseudotype entry inhibition, cell reporter; control for the full effect not named in the record | 300,000 compounds, 1.2% hits | Potency, µM (top dose mostly 37.9 µM), inactives show at the highest dose activity change, negative = inhibition, most hits filed as inhibitors; active means well fitted inhibition curve with a large enough effect; inconclusive means small, poorly fitted or top-dose-only effect, or effect the other way; inactive means flat fitted curve, though single readings scatter; tested in HEK293 cells; note: % is set by controls: 0 for no effect and ±100 for the full control effect; nearly all actives have a fitted effect of over 50% in size; luciferase read-out
NS1 inh = blocks influenza NS1 protein function | S. cerevisiae slowed by influenza A NS1, growth recovery by OD600 | Potency, µM (top dose mostly 46.1 µM), for inactives: at the highest dose activity, positive = more growth | 270,000 compounds, 0.4% hits; active means well fitted rising curve with a large enough effect; inconclusive means small, poorly fitted or top-dose-only effect; inactive means no such curve, though single readings can be large or run the other way; note: nearly all actives have a fitted effect of over 50% in size
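Read-out: OD600 growth recovery of NS1-expressing budding yeast. Cells grown overnight at 30C in -URA glucose medium, washed, resuspended and diluted 1:100 in 2% galactose assay medium, pH 6.0. Same strain lacking NS1 served as positive control.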
* hit, by the source's call; & = joins results of further samples; [ ] = dose if it differs, or a comment. Unless noted, calls come from the whole dose curve; as a rule, active = well fitted curve in the direction sought with a large enough effect; inconclusive = small, poorly fitted or top-dose-only effect, or another doubt; inactive = no such curve, though single readings can be large; an effect the other way counts as inactive or inconclusive. Potency is the fitted concentration of half-maximal effect.

How did Cc1ccc(S(=O)(=O)N(C)CCCC(=O)Nc2cc(C)ccc2C)cc1 do in these assays?
Marburg entry inh: inconclusive; SARS PLpro yeast: 18.8%; RE007 growth inh: 6.7%; 2A StopGo: inconclusive; Cruzain noTriton: 5.4%; Cruzain inh Det: -0.9%; LASV entry inh: inconclusive; NS1 inh: -27.5%

Results for COc1ccc(-c2cc(C(F)(F)F)nc(S(=O)(=O)CCCC(=O)Nc3cccnc3Cl)n2)cc1OC ?
Marburg entry inh: inconclusive; SARS PLpro yeast: -1.7%; RE007 growth inh: -4.7%; 2A StopGo: inconclusive; LASV entry inh: inconclusive

Results for CCCCNC(=O)CSc1nc2ccc(NC(=O)CSc3nnc(N)s3)cc2s1 ?
Marburg entry inh: inconclusive; SARS PLpro yeast: 3.5%; RE007 growth inh: 7.6%; 2A StopGo: inconclusive; Cruzain noTriton: 5.4%; Cruzain inh Det: -3.1%; LASV entry inh: -2.6%; NS1 inh: 2.5%

What do the screens show for `NC(=O)NCC(=O)N1CCC(C(O)(c2ccccc2)c2ccccc2)CC1`?
Marburg entry inh: 0.3%[46.1 µM]; SARS PLpro yeast: 0.6%; RE007 growth inh: -7.4%; 2A StopGo: -9.3%; LASV entry inh: -1.4%; NS1 inh: 5.9%

Results for CC(=O)NC(Cc1ccc(C(C)C)cc1)C(=O)NC1CCN(c2nc(C)cc(C)n2)CC1 (stereo unspecified) ?
Marburg entry inh: 8.1%[46.1 µM]; SARS PLpro yeast: 7.8%; RE007 growth inh: -11.0%; 2A StopGo: -20.4%; Cruzain noTriton: inconclusive; Cruzain inh Det: -1.4%; LASV entry inh: 0.0%; NS1 inh: -13.1%

What do the screens show for `CSc1ccccc1NC(=O)c1ccc(N2CC3CC(C2)c2cccc(=O)n2C3)c(NC(=O)c2ccncc2)c1` (stereo unspecified)?
SARS PLpro yeast: 2.6%; RE007 growth inh: -3.7%; 2A StopGo: -2.6%; NS1 inh: -1.8%

How did CN(C)c1ccc(S(=O)(=O)N2CCCCC2)cc1NC(=O)CN1C(=O)NC(C)(c2ccccc2)C1=O (stereo unspecified) do in these assays?
Marburg entry inh: 10.4%; SARS PLpro yeast: 0.4%; RE007 growth inh: -20.6%; 2A StopGo: -6.0%; LASV entry inh: -1.1%

How did COc1ccc(/C=N/n2cncn2)cc1COc1ccc(NC(C)=O)cc1 do in these assays?
Marburg entry inh: -0.7%[46.1 µM]; SARS PLpro yeast: -0.7%; RE007 growth inh: -9.4%; 2A StopGo: 5.4%; Cruzain noTriton: 2.8%; Cruzain inh Det: -6.2%; LASV entry inh: 2.9%; NS1 inh: -3.1%

Results for Cc1ccc(S(=O)(=O)/N=C(\c2ccc(Cl)cc2)N2CCOCC2)cc1 ?
Marburg entry inh: 2.3%[46.1 µM]; SARS PLpro yeast: 1.2%; RE007 growth inh: 9.2%; 2A StopGo: -1.9%; Cruzain noTriton: -4.0%; Cruzain inh Det: 0.7%; LASV entry inh: inconclusive; NS1 inh: 4.6%

Results for O=C1c2ccccc2C(=O)N1Cc1nc2ccccc2c(=O)n1CCCn1ccnc1 ?
Marburg entry inh: 6.3%; SARS PLpro yeast: -6.4%; RE007 growth inh: 11.1%; 2A StopGo: -5.0%; Cruzain noTriton: -1.0%; Cruzain inh Det: 4.6%; LASV entry inh: 0.3%; NS1 inh: -4.7%

How did CNC(=S)N1CCC(NC(=O)C(Cc2ccc(OC)cc2)NC(C)=O)CC1 (stereo unspecified) do in these assays?
SARS PLpro yeast: 3.3%; RE007 growth inh: 5.9%; 2A StopGo: -2.7%; NS1 inh: 26.9%

Results for O=C(O)CCC(=O)NNC(=O)c1cccs1 ?
Marburg entry inh: 16.3%[46.1 µM]; SARS PLpro yeast: 0.2%; RE007 growth inh: -8.1%; 2A StopGo: 3.2%; LASV entry inh: 15.9%; NS1 inh: 4.9%

What do the screens show for `CCCn1nnnc1SCC(=O)N(C(C)C)C(C)C`?
Marburg entry inh: 24.3%; SARS PLpro yeast: 1.8%; RE007 growth inh: -0.4%; 2A StopGo: 8.6%; Cruzain noTriton: 9.1%; Cruzain inh Det: 5.0%; LASV entry inh: 5.2%; NS1 inh: -1.8%

How did C[n+]1ccccc1C1CCCC/C1=N\Nc1ccc([N+](=O)[O-])cc1[N+](=O)[O-] (stereo unspecified) do in these assays?
Marburg entry inh: 20.8%; SARS PLpro yeast: -12.0%; RE007 growth inh: -7.4%; 2A StopGo: -12.5%; Cruzain noTriton: -6.7%; Cruzain inh Det: -11.9%; LASV entry inh: 13.9%; NS1 inh: -9.5%

How did CSC1=Nc2sc3c(c2C2=NCCN12)CCCC3 do in these assays?
SARS PLpro yeast: 0.1%; Cruzain noTriton: -15.4%; Cruzain inh Det: 0.6%; NS1 inh: -7.0%

Results for O=C(Cn1nnc(-c2ccccc2)n1)N/N=C/c1cc([N+](=O)[O-])c(Cl)cc1Cl ?
Marburg entry inh: 5.6%; SARS PLpro yeast: inconclusive; RE007 growth inh: 4.2%; 2A StopGo: -10.9%; Cruzain noTriton: -3.7%; Cruzain inh Det: -2.1%; LASV entry inh: -0.5%; NS1 inh: 2.6%

How did Cc1cccn2cc(-c3cc4ccccc4oc3=O)nc12 do in these assays?
Marburg entry inh: -24.3%[46.1 µM]; SARS PLpro yeast: -0.7%; RE007 growth inh: -3.7%; 2A StopGo: -10.2%; LASV entry inh: -29.9%; NS1 inh: 1.5%

What do the screens show for `CCN(CC)C(=O)c1ccc2c(=O)n(Cc3cccc(Br)c3)c(=S)[nH]c2c1`?
SARS PLpro yeast: 0.5%; RE007 growth inh: 8.6%; 2A StopGo: inconclusive; NS1 inh: -0.7%

Results for COc1ccc(O)c(/C=N/NC(=O)CN2CCS(=O)(=O)CC2)c1 ?
Marburg entry inh: 10.8%[46.1 µM]; SARS PLpro yeast: -3.8%; RE007 growth inh: 3.9%; 2A StopGo: -11.3%; LASV entry inh: -4.4%[46.1 µM]; NS1 inh: 0.0%

How did CCOC(=O)c1[nH]c2c(OCC)nc(OCC)nc2c1Br do in these assays?
Marburg entry inh: inconclusive; RE007 growth inh: -25.5%; 2A StopGo: -14.4%; LASV entry inh: 0.4%

What do the screens show for `COC(=O)c1sccc1NC(=O)Nc1ccccc1C`?
Marburg entry inh: 8.1%[46.1 µM]; SARS PLpro yeast: -0.3%; RE007 growth inh: -8.4%; 2A StopGo: 9.7%; LASV entry inh: 18.0%[46.1 µM]; NS1 inh: -18.3%

What do the screens show for `COC(=O)c1c(C)nc(C)c(C(=O)OC)c1-c1ccsc1`?
SARS PLpro yeast: -0.6%; RE007 growth inh: 1.0%; 2A StopGo: -14.1%; NS1 inh: -3.5%

Results for CCc1ccc(OCC(=O)O/N=C(\N)c2ccncc2)c(Br)c1 ?
Marburg entry inh: 15.6%; SARS PLpro yeast: -14.0%; RE007 growth inh: 3.8%; 2A StopGo: 0.4%; LASV entry inh: -25.5%; NS1 inh: -22.8%

What do the screens show for `Cc1ccc2c(c1)sc[n+]2Cc1ccccc1`?
Marburg entry inh: inconclusive; SARS PLpro yeast: -13.2%; RE007 growth inh: -0.6%; 2A StopGo: 36.1%[activator]; Cruzain noTriton: 5.4%; Cruzain inh Det: -1.3%; LASV entry inh: 14.2%; NS1 inh: 0.2%

What do the screens show for `O=C(NCc1ccco1)Nc1ccc(OC(F)(F)F)cc1`?
Marburg entry inh: -2.5%; SARS PLpro yeast: -4.2%; RE007 growth inh: -5.6%; 2A StopGo: 26.6%; NS1 inh: -38.0%

How did CCOC(=O)c1cccc(NC(=O)CCNS(=O)(=O)c2ccc3c(c2)CCN3C(=O)CC)c1 do in these assays?
Marburg entry inh: -16.1%&-16.1%; SARS PLpro yeast: 9.9%; RE007 growth inh: -2.9%; 2A StopGo: inconclusive; Cruzain noTriton: 16.5%; Cruzain inh Det: -0.4%; LASV entry inh: -6.5%; NS1 inh: inconclusive

How did S=c1[nH]c(-c2ccccc2)cn1/N=C/c1ccc(Br)cc1 do in these assays?
Marburg entry inh: 1.4%[46.1 µM]; SARS PLpro yeast: 14.3%; RE007 growth inh: 4.3%; 2A StopGo: 0.0%; LASV entry inh: -12.8%; NS1 inh: -0.8%

Results for Cc1cc(C)cc(NC(=O)Nc2ccc3nc(N4CCN(C)CC4)cc(C)c3c2)c1 ?
2A StopGo: -23.1%; Cruzain noTriton: 3.4%; Cruzain inh Det: 2.2%; LASV entry inh: 4.0%[46.1 µM]

Results for Cc1ccc(N2C(=O)[C@@H]3[C@H](C2=O)[C@H]2C=C(C(=O)c4ccccc4)C=CN2[C@@H]3C(=O)c2ccc(Cl)cc2)cc1 ?
Marburg entry inh: inconclusive; SARS PLpro yeast: -0.4%; RE007 growth inh: 1.6%; 2A StopGo: -10.5%; Cruzain noTriton: 3.16µM*; Cruzain inh Det: -0.5%; LASV entry inh: -6.9%; NS1 inh: inconclusive

What do the screens show for `COc1ccc2[nH]cc(CCNC(=O)C3CCCNC3=O)c2c1` (stereo unspecified)?
SARS PLpro yeast: -0.7%; RE007 growth inh: 6.8%; 2A StopGo: -6.8%; Cruzain noTriton: -4.9%; Cruzain inh Det: 1.8%; NS1 inh: -0.1%

What do the screens show for `Cc1cc(C(=O)CCl)c(C)n1Cc1ccco1`?
Marburg entry inh: inconclusive; SARS PLpro yeast: inconclusive; RE007 growth inh: 2.7%; 2A StopGo: 28.2µM*; LASV entry inh: inconclusive

Results for CCn1c(=O)c2cc(S(=O)(=O)NCc3ccccc3)ccc2n(CC)c1=O ?
Marburg entry inh: inconclusive; SARS PLpro yeast: 4.9%; RE007 growth inh: -14.2%; 2A StopGo: 35.9%[activator]; Cruzain noTriton: 5.1%; Cruzain inh Det: 3.0%; LASV entry inh: -22.0%; NS1 inh: -22.8%

Results for C=CCSc1nc2ccccc2c(=O)n1C1CCOC(C)(C)C1 (stereo unspecified) ?
Marburg entry inh: -14.4%[46.1 µM]; SARS PLpro yeast: -0.3%; RE007 growth inh: -9.8%; 2A StopGo: 25.2%; LASV entry inh: -1.9%; NS1 inh: -10.3%

High-throughput results as filed in PubChem.
